# Beta2AR agonist: beta2AR agonists driving receptor internalization, primary screen, cell-based, FAP fluorogen, flow cytometry | Beta-2 adrenergic receptor (Homo sapiens), P07550 | Am2.2-beta2AR cells; reference of the scale not given here | response, % (test concentration not listed) | 340,000 tested, 0.43% active | AID 504454, 2011;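 active means response above a set limit, near 3 SD of response in nonfluorescent compounds, cut at about 42% in these data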;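 further: stock transfer was 100 nL into about 11 µL; a reference agonist was the positive control; negative values mostly stem from fluorescent compounds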
# Target sequence (P07550 whole entry, looked up): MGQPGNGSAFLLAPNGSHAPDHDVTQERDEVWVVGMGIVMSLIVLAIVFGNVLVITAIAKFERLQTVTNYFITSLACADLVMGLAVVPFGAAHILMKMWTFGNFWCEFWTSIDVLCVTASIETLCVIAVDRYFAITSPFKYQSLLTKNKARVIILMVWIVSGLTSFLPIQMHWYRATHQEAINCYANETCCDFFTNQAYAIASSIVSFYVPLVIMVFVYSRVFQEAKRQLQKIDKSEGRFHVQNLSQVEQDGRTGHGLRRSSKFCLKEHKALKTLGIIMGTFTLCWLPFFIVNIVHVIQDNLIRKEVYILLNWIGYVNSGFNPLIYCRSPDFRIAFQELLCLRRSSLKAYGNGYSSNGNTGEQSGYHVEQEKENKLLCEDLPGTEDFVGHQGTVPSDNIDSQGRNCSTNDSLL
# HNF4A DNA FP: change in binding of human HNF4A to DNA, primary screen, biochemical, fluorescence polarization, FITC-DNA; Hepatocyte nuclear factor 4-alpha (Homo sapiens), P41235; 1 h; activity change, % at 10 µM; 360,000 tested, 0.3% active; AID 1224865, 2016; in the data active means activity change above about 30%, passing the limit was not always enough;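 further: controls were the assay level and a saturating level of protein; the project sought stronger binding though the title names inhibitors; some compounds called inactive have numbers as strong as hits; positive values seem to mean higher polarization but the record does not say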
# Target sequence (P41235 whole entry, looked up): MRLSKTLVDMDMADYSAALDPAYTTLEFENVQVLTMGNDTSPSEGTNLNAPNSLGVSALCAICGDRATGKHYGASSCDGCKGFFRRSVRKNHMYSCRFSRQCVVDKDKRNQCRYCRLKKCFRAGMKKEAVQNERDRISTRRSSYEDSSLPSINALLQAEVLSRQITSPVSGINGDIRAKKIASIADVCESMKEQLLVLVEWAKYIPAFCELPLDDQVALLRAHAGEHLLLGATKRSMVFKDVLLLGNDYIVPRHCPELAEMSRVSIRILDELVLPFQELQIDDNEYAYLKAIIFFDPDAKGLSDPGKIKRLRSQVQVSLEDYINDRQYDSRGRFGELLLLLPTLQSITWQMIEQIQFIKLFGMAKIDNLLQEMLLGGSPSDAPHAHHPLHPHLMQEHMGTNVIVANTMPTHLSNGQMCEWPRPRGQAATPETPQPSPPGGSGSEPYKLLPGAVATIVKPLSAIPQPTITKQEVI
# An asterisk follows results filed as active. A portion of the library; the hit share may differ from the screen's.
SMILES,Beta2AR agonist,HNF4A DNA FP
CC(C)[C@H](NS(=O)(=O)c1ccc(Cl)cc1)C(=O)OCC(=O)c1c(N)n(C)c(=O)n(C)c1=O,7.8,1.5
CCCCNS(=O)(=O)CCNCc1ccco1,-10.2,1.9
COc1cc(NCCCn2ccc(NC(=O)OCc3ccccc3)nc2=O)cc(OC)c1OC,3.1,0.7
O=C1CCCCC1Nc1ccc(Cl)cc1 (stereo unspecified),-4.0,0.4
COCCn1c(N)c(N(Cc2ccccc2)C(=O)c2ccc(N3CCCC3=O)cc2)c(=O)[nH]c1=O,-18.3,-4.0
O=C(NNc1nc(N2CCOCC2)nc(N2CCOCC2)n1)c1ccccc1,-3.1,1.6
COC(=O)[C@@H](NCc1ccc(B(O)O)cc1)C(C)C,4.7,-0.3
COc1ccc(C2/C(=C(/O)c3cnn(-c4ccccc4)c3C)C(=O)C(=O)N2CCN(C)C)cc1OC (stereo unspecified),-5.9,3.3
COC(=O)[C@H](CO)N1C(=O)[C@@H]2[C@H](C1=O)C1C=C[C@H]2C1,6.5,0.3
COC(=O)C1CC2=C(CCCC2=O)N(c2ccccc2)C1=O (stereo unspecified),2.2,-1.3
Cc1noc(C)c1C(=O)Nc1nc(-c2cc(F)ccc2F)cs1,1.1,0.6
CC1(c2cccc(Br)c2)NC(=O)N(CC(=O)N2CCc3ccccc32)C1=O (stereo unspecified),-6.6,-4.0
O=C1[C@H](Cc2ccccc2)NCCCC[C@@H](c2ccco2)N1Cc1ccccc1,0.5,6.2
Cc1cc(NC(=O)c2ccc(C(C)(C)C)cc2)no1,-3.9,-5.0
CCN(C(=O)COC(=O)C1COc2ccccc2O1)c1c(N)n(Cc2ccccc2)c(=O)[nH]c1=O (stereo unspecified),-2.2,-1.5
O=C(COC(=O)c1nc(Cl)c(Cl)c(Cl)c1Cl)NCc1ccccc1,12.2,-0.6
COc1ccccc1NS(=O)(=O)c1cc(NC(=O)c2ccc(NC(C)=O)cc2)ccc1N1CCOCC1,16.0,1.0
COc1ccc(NC(=O)CN(C)CC(=O)Nc2sc3c(c2C#N)CCC3)cc1,-5.1,-0.4
Oc1ccc(-c2nc(-c3ccc(F)cc3)c(-c3ccncc3)[nH]2)cc1,-4.5,1.1
CC[C@]12c3[nH]c4cc(CCC(=O)N(C)C)ccc4c3CCN1C(=O)[C@@H](CC(=O)NCCCOC)C[C@@H]2C(=O)N1CCN(C(=O)C2CC2)CC1,-5.9,0.8
CSc1ccccc1NC(=O)C(C)N(C)CC(=O)N1CCN(Cc2ccccc2)CC1 (stereo unspecified),1.7,-1.3
COCCN(C(=O)CSc1nc2ccccc2s1)c1c(N)n(Cc2ccccc2)c(=O)[nH]c1=O,7.5,17.1
COc1ccccc1NC(=O)CSc1n[nH]c(-c2ccco2)n1,2.1,1.2
O=C1c2ccccc2C(=O)N1c1ccccc1,-13.2,2.7
Cc1ccc(/C(O)=C2/C(=O)C(=O)N(CCCn3ccnc3)C2c2cccnc2)cc1 (stereo unspecified),-7.0,1.4
COC(=O)[C@H](Cc1ccccc1)NS(=O)(=O)c1ccc(F)cc1Br,10.2,-1.1
COC(=O)[C@H](Cc1c[nH]c2ccccc12)NCc1cccc(B(O)O)c1,9.6,2.0
Cc1ccc(-n2c(C)cc(C=C3C(=O)N(C)C(=O)N(C)C3=O)c2C)cc1,0.6,-1.4
CN(C)CCCNC(=O)C[C@H]1C[C@H](C(=O)N2CCCCC2)[C@@]2(C)c3[nH]c4ccc(Cl)cc4c3CCN2C1=O,0.4,2.2
C#CCCC/C(=C\C(=O)N(C)[C@H](C(=O)N(C)[C@H](C(=O)N(C)[C@H](C(=O)N(C)[C@H](C(N)=O)C(C)C)C(C)C)C(C)C)C(C)C)OC,-4.1,2.6

# Whole records, quoted from the list. Screens in order: Beta2AR agonist | HNF4A DNA FP
# Listed for COC(=O)[C@H](Cc1ccccc1)NS(=O)(=O)c1ccc(F)cc1Br = 10.2 | -1.1
# Listed for Cc1ccc(-n2c(C)cc(C=C3C(=O)N(C)C(=O)N(C)C3=O)c2C)cc1 = 0.6 | -1.4
# Listed for COC(=O)[C@H](Cc1c[nH]c2ccccc12)NCc1cccc(B(O)O)c1 = 9.6 | 2.0

# The results go on:
SMILES,Beta2AR agonist,HNF4A DNA FP
CCOc1ccc(CCNC(=O)c2ccc(C)c(S(=O)(=O)N3CCOCC3)c2)cc1OCC,-1.0,-3.4
O=C(c1ccc2c(c1)C(=O)N(Cc1ccncc1)C2=O)N1CCN(S(=O)(=O)c2ccc(OC(F)(F)F)cc2)CC1,-8.8,-2.3
CCCCN1CC(=O)N2[C@@H]3c4cc(OC)ccc4OC[C@@H]3[C@H](C(=O)OCC)[C@]2(C)C1=O,-2.6,-1.8
O=C(OCC(=O)N1CCOCC1)c1cnc(Cl)c(Cl)c1,8.1,3.7
O=C(NC1CCC(O)CC1)C1CCN(S(=O)(=O)c2c(Cl)cccc2Cl)CC1 (stereo unspecified),-2.7,-0.5
CC(=O)Nc1ccc(S(=O)(=O)NCCC(=O)OCC(=O)NC(C)c2ccc(Cl)cc2)cc1 (stereo unspecified),-4.0,1.9
COc1ccc(O)cc1,8.8,1.0
C[C@@H]1C(c2cccc(Cl)c2)=NN(c2ccc(Br)cc2)[C@H]1C(=O)N1CCOC1=O,1.7,-1.9
CCCCN(C(=O)c1cccc(N2C(=O)c3ccccc3C2=O)c1)c1c(N)n(CCCC)c(=O)[nH]c1=O,-1.4,0.0
O=C(Cc1ccc(NC(=O)C2CCN(C(=O)C3CCCCC3)CC2)cc1)Nc1cccc(C(=O)N2CCCCC2)c1,-1.4,-0.4
COc1ccc(NS(=O)(=O)c2cc(C(=O)N(C)CCc3ccccn3)ccc2Cl)cc1,1.5,-1.3
CCc1nc(C)cn1S(=O)(=O)c1ccc2c(c1)OCCO2,-0.2,2.4
Cc1cc(SCC(=O)N(CC(C)C)c2c(N)n(CC(C)C)c(=O)[nH]c2=O)nc2ccccc12,-0.1,4.5
CN(C(=O)c1cccc(NC(=O)Cc2ccc(NC(=O)C3CCCN(C(=O)C4CCCCC4)C3)cc2)c1)C1CCCCC1 (stereo unspecified),8.4,-2.7
COc1cc2oc(=O)ccc2cc1-c1c(OC)ccc2ccc(=O)oc12,-6.9,0.5
COc1ccc2[nH]c3c(c2c1)CCN1C(=O)C(CC(=O)NCc2ccc(OC)c(OC)c2)C[C@H](C(=O)N2CCCCC2)[C@@]31CCc1ccccc1 (stereo partly specified),-4.6,2.4
COc1ccc(CNC(=O)C[C@H]2C[C@H](C(=O)N3CCCCC3)[C@@]3(C)c4[nH]c5ccc(Cl)cc5c4CCN3C2=O)cc1OC,-4.7,-0.2
CCN(C(=O)COC(=O)CCS(=O)(=O)c1ccccc1)c1c(N)n(Cc2ccccc2)c(=O)[nH]c1=O,-1.7,1.8
O=C(CN1C(=O)NC(c2ccccc2)(c2ccccc2)C1=O)NC1CCCCC1,2.2,2.8
NC(=S)N=Nc1ccc(O)cc1,5.6,2.9
C=CCN1CCS(=O)(=O)N(Cc2ccccc2)[C@@H](C(C)C)C1=O,-2.8,2.5
CNS(=O)(=O)c1cccc(C(=O)OCC(=O)c2c(N)n(Cc3ccccc3)c(=O)n(C)c2=O)c1,7.2,-4.2
COc1ccc(C2(OC)Oc3cc(OC)ccc3C(=O)C2(O)OC)cc1 (stereo unspecified),4.3,0.5
COc1cc2c(cc1OC)[C@@H](NC(=O)COc1ccccc1)[C@H](OCc1ccccc1)C2,4.2,-1.4
CC(C)(C)C(=O)Nc1ccc(S(=O)(=O)NC2=NCCCCC2)cc1,3.8,-4.0
O=[N+]([O-])c1cccc(COc2cccc(CN3CCOCC3)c2)c1,-4.4,-1.3
CN1C[C@@H]2[C@@H]3C(=O)N(Cc4ccccc4)C(=O)[C@@H]3[C@](C)(C1=O)N2C(=O)c1ccc(C(C)(C)C)cc1,-5.1,-1.2
C#CCN1C=CC(=O)[C@@H](OC(=O)NCCC)[C@H]1c1ccccc1Br,-1.8,-0.1
Cc1ccc(Cn2c(C)c3cnn(CC(=O)NCCN4CCOCC4)c(=O)c3c2C)cc1,-1.9,0.3
CC(=O)O/N=C1\C(=O)N(Cc2ccc(C)cc2)c2ccccc21,-7.5,-1.7

# Three records picked at random from those above, as already listed:
SMILES,Beta2AR agonist,HNF4A DNA FP
CC(=O)O/N=C1\C(=O)N(Cc2ccc(C)cc2)c2ccccc21,-7.5,-1.7
Cc1ccc(Cn2c(C)c3cnn(CC(=O)NCCN4CCOCC4)c(=O)c3c2C)cc1,-1.9,0.3
C#CCN1C=CC(=O)[C@@H](OC(=O)NCCC)[C@H]1c1ccccc1Br,-1.8,-0.1

# The list goes on:
SMILES,Beta2AR agonist,HNF4A DNA FP
COc1ccc2oc(C(=O)N3CCN(S(=O)(=O)c4c(C)c(C)cc(C)c4C)CC3)c(C)c2c1,-3.3,7.3
c1ccc(COc2ncnc3c2ncn3CCCNCc2ccc3c(c2)OCO3)cc1,-3.0,-5.1
COc1cc(/C=C/C(=O)OCC(=O)NC(=O)NC2CCCCC2C)ccc1OC(F)F (stereo unspecified),-6.9,-3.6
O=S1(=O)c2ccc(Br)cc2N2CCC[C@@H]2CN1C1CC1,-3.0,-1.3
Cc1nc(CN2CCCCC2)c(O)c(=O)[nH]1,-4.9,3.8
CCN(C(=O)COC(=O)/C=C/c1nc2ccccc2s1)c1c(N)n(Cc2ccccc2)c(=O)[nH]c1=O,-8.3,0.6
O=C1C(=O)N(Cc2ccccc2)C(=O)N1CCOc1ccccc1,0.4,-4.4
Cc1nc(N2CCN(Cc3ccc4c(c3)OCO4)CC2)c2oc3ccccc3c2n1,-7.1,-0.7
O=C(Cn1cc(COc2ccccc2C(F)(F)F)nn1)c1ccc(O)cc1,5.2,-5.0
COc1cc(SC)ccc1C(=O)N1CCN(S(=O)(=O)/C=C/c2ccccc2)CC1,4.6,2.1
Brc1ccc(C2Nc3cccc4cccc(c34)N2)cc1,24.8,3.3
C=C1C(=O)c2sccc2C(c2ccc(OC)c(OC)c2)C1COC(C)=O (stereo unspecified),102.3*,-0.1
CN(CC(=O)Nc1c(Cl)cccc1Cl)C(=O)c1ccc(NS(=O)(=O)c2ccc3[nH]c(=O)[nH]c3c2)cc1,1.5,-4.1
CCOc1cc2c(cc1O)CCC1C2CCC2(C)C(O)CCC12 (stereo unspecified),22.9,-3.6
CN(C(=O)c1cccc(NC(=O)Cc2cccc(NC(=O)C3CCCN(C(=O)C4CCCCC4)C3)c2)c1)C1CCC1 (stereo unspecified),-10.9,-2.1
N#CC(C#N)=C1SC(=Nc2ccccc2)C(=Nc2ccccc2)N1c1ccccc1,-5.0,-4.1
O=C(Cn1nc2ccccc2n1)N/N=C/c1cc(Cl)cc([N+](=O)[O-])c1O,5.7,6.0
COc1ccc(CC(=O)Nc2cc(S(=O)(=O)N3CCOCC3)ccc2N2CCCC2)c(OC)c1,-2.4,3.2
Cc1cc(C)nc(N2CCN(c3nc(-c4ccccc4)nc4c3oc3ccccc34)CC2)n1,-2.6,-0.9
CCOC(=O)C1=CN(Cc2ccc(Br)cc2)S(=O)(=O)NC1C (stereo unspecified),1.0,1.1
CC(=O)N1CCN(c2ccc(Oc3nc(-c4ccccc4)nc4ccccc34)cc2)CC1,-9.1,-3.2
CC(C)(C)c1nnc(NS(=O)(=O)c2ccc(F)cc2)s1,1.6,0.6
Cc1ccc(NC(=O)C(C)OC(=O)c2nc(Cl)ccc2Cl)cc1S(=O)(=O)N1CCOCC1 (stereo unspecified),-1.9,2.2
CC(C)C(=O)Nc1cccc(COc2ccc(CN(Cc3ccccc3)C(=O)OC(C)(C)C)cc2)c1,2.2,6.1
Cc1ccc2cc3c(=O)n(C)cc(C=O)c3nc2c1,-7.0,1.0
CCOC(=O)C1CCN(S(=O)(=O)NC[C@H]2O[C@@H](n3cnc4c(N)ncnc43)[C@H](O)[C@@H]2O)C1 (stereo partly specified),-1.4,-0.7
CC(OC(=O)C1CCN(S(=O)(=O)c2ccc3c(c2)OCCO3)CC1)C(=O)NC1(C#N)CCCCC1 (stereo unspecified),-1.8,-2.1
COC(=O)C(C(=O)OC)C1C=CCN(C(C)=O)C1 (stereo unspecified),-6.3,3.8
CC[C@]12C(=O)N(C)C[C@H]([C@@H]3C(=O)N(Cc4ccccc4)C(=O)[C@@H]31)N2C(=O)c1ccc(Br)cc1,-2.6,-1.4
Cc1ccc(C2(C)NC(=O)N(CC(=O)NCCN3C(=O)S/C(=C\c4cccnc4)C3=O)C2=O)cc1 (stereo unspecified),-1.7,2.6
COc1ccc(NC(=O)c2oc3ccccc3c2NC(=O)c2ccc(OC)c(OC)c2)c(OC)c1,2.3,-3.6
CCCCCCC[C@@H](C/C=C/CCC(=O)O)OC,0.9,-0.2
COCCN(C(=O)c1cc(-c2ccccc2Cl)nc2ccccc12)c1c(N)n(CC(C)C)c(=O)[nH]c1=O,-2.4,3.8
CCOC(=O)N1CCN(C(=O)C2CCCN(c3ncnc4c3sc3cccc(F)c34)C2)CC1 (stereo unspecified),-8.3,0.0
O=C(Oc1ccccc1)c1ccccc1C(=O)Oc1ccccc1,-6.3,1.4
O=C1CCC[C@@H]2C[C@@]3(C[C@@H]4CCN1[C@H]24)Nc1cc([N+](=O)[O-])ccc1NC3=NC1CCCCC1,-15.9,6.0
Nc1[nH]c(=O)[nH]c(=O)c1N=Cc1ccccc1,-10.6,-12.1
CCCCOCCO,-0.8,-2.3
Cc1ccccc1C1=C/C(=C(\SS/C(C(=O)c2ccc(OCC(=O)O)c(Cl)c2Cl)=C2\C=C(c3ccccc3C)SS2)C(=O)c2ccc(OCC(=O)O)c(Cl)c2Cl)SS1,-15.4,-28.8
CCN(c1ccccc1)S(=O)(=O)c1cccc(C(=O)NCC(c2ccco2)N2CCCCC2)c1 (stereo unspecified),3.9,-3.3

# Beta2AR agonist: hit marks shown above.
Molecule	Beta2AR agonist
C=C1C(=O)c2sccc2C(c2ccc(OC)c(OC)c2)C1COC(C)=O (stereo unspecified)	102.3*
